Screening results (PubChem)
TRPV1 potentiator – potentiators of human vanilloid receptor 1 (TRPV1); Q8NER1; hit rate 0.02% among 320,000; TRPV1-expressing cells, Fluo-8 calcium influx, capsaicin EC20 potentiation; host cell line not named in the record; control for the full effect not named in the record; potentiation, % at 8.33 µM; AID 540277; active means potentiation above 80%; inconclusive means 30% to 80%; inactive means below 30%; also: 0% is about no effect
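TRPV1-expressing cells were cultured overnight at 35.5C and loaded with Fluo-8 calcium dye for 40 to 90 min at room temperature. After a 10 s baseline, compound was added and calcium influx was read kinetically for 3 min (ex 480/em 520 nm).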
ClpP mod – qHTS Assay for Activators of ClpP. purified B. subtilis ClpP, FRET peptide cleavage, 20 min. Potency, µM (titrated, usually from 57.5 µM), inactives show top-dose activity change, negative = active. hit rate 1.9% among 340,000. AID 651965, 2013; active = well fitted falling curve with a large enough effect; inconclusive = small, poorly fitted or top-dose-only effect; inactive = no such curve, though single readings can be large or run the other way; also: potency is read from the fitted curve at half-maximal effect; the source files actives as falling curves though it sought activators and does not explain the sign; nearly all actives have a fitted effect of over 65% in size; many hits overshoot -100%
Target sequence (P80244 whole entry, looked up): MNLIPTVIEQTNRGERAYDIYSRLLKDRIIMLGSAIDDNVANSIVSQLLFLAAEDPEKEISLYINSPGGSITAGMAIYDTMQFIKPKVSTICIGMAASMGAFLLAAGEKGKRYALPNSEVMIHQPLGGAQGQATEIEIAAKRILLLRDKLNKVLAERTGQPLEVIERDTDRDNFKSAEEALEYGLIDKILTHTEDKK
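Buffer: 100 mM Tris/HCl pH8, 100 mM KCl, 0.05% low protease BSA, 2.5% glycerol, 0.01% Tween-20. ClpP 10 microg/mL final; 20 min RT; delta FRET normalized to ADEP and DMSO controls.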
Sfp PPTase inh – blocks B. subtilis Sfp PPTase activity; Q9F4F7; Biochemical Sfp PPTase activity, qHTS; Potency, µM, inactives show max response, negative = inhibition, usual class: inhibitors; hit rate 3.5% among 310,000; AID 1490; active = well fitted inhibition curve with a large enough effect; inconclusive = small, poorly fitted or top-dose-only effect, or another doubt; inactive = no such curve, though single readings can be large or run the other way;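 also: the enzyme is Sfp with the accession as filed and its product quenches rhodamine fluorescence; potency is read from the fitted curve at half-maximal effect; 0% = enzyme reaction without inhibitor and -100% = no enzyme wells; top concentration of the series not given in the record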
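Sfp 15 nM + cpd, 15 min RT; start w/ rhodamine-CoA 5 uM, BHQ-2-YbbR 12.5 uM (final); 50 mM Hepes pH 7.6, 10 mM MgCl2, 0.01% NP-40, 0.01% BSA; read 525/598 nm at 0 and 30 min.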
gsp antagonist – antagonists of gsp mutant (McCune-Albright syndrome) | gsp-mutant cells, cAMP HTRF, 30 min; control for the full effect not named in the record | Potency, µM (highest dose often 76.9 µM), for inactives: at the top dose activity change, negative = inhibition, hits mostly inhibitors | hit rate 0.4% among 340,000; active = falling curve of any shape with a large fitted effect; inconclusive = falling curve, mostly with a smaller effect; inactive = flat or rising curve; cell line not stated here;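 also: intracellular cAMP measured with PDE inhibitor Ro 20-1724 present during compound exposure; potency is read from the fitted curve at half-maximal effect; % is scaled to controls: 0 for no effect and ±100 for the full control effect; nearly all actives have a fitted effect of over 65% in size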
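HTRF cAMP read-out (cAMP-d2 plus anti-cAMP antibody-K in lysis buffer, 30 min RT). Before lysis, cells are exposed to compounds with […] for 30 min at 37C in DPBS containing Ca/Mg, BSA and Tween 20.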
gsp agonist – agonists of gsp mutant (McCune-Albright syndrome) | hit rate 0.13% among 340,000 | Potency, µM (top dose mostly 76.9 µM), without a hit: at the top dose activation (cAMP increase), most hits filed as activators | gsp mutant cells, cAMP HTRF, 30 min; control for the full effect not named in the record | AID 624287; active = well fitted activation curve with a large enough effect; inconclusive = small, poorly fitted or top-dose-only effect, or another doubt; inactive = no such curve, though single readings can be large or run the other way; cell line not stated here;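 also: phosphodiesterase inhibitor Ro 20-1724 added with compounds to block cAMP breakdown; potency is read from the fitted curve at half-maximal effect; nearly all actives have a fitted effect of over 60% in size; about a fifth of the inactives were tested at one dose only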
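Cells stably selected in G418 were plated at 2000/well, grown 16-24 hr, then given compounds in DMSO with the PDE inhibitor […] (300 uM solution added) for 30 min at 37C; cAMP was read by HTRF.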
TRPML1 inh – inhibitors of human TRPML1 channel; hit rate 0.02% among 390,000; AID 624415; activity change, negative = inhibition, % (no concentration beside the values); TRPML1-inducible cells, Ca2+ dye fluorescence, FDSS; hits give low values; inhibition of EC80 agonist-evoked calcium signal; in the data active means activity change below about -50%; inconclusive means about -30% to -50%; inactive means above about -30%;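 also: stimulus is agonist 54-4 at its EC80 concentration; % is scaled to controls: 0 for no effect and ±100 for the full control effect; compound concentration not given in the record; the text of the record puts the active cut at -80%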
Target sequence (Q9GZU1 whole entry, looked up): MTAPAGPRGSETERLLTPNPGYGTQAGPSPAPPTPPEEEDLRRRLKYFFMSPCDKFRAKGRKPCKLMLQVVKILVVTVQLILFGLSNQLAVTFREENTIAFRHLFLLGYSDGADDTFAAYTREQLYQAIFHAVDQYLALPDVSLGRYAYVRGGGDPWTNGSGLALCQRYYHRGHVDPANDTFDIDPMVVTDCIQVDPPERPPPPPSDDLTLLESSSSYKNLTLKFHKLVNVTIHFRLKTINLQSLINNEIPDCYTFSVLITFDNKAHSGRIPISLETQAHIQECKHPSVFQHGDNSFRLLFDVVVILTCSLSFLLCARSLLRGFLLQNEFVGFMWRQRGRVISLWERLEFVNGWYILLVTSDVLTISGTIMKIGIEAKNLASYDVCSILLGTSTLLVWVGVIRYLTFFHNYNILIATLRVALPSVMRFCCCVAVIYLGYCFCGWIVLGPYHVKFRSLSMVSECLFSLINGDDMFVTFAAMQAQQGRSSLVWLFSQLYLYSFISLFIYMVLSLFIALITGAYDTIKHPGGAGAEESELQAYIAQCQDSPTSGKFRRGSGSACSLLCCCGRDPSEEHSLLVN
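TRPML1-DL cells, Tet-induced overnight (~16 h, 37 °C) at 1,500 cells/well, were loaded with Ca8 no-wash dye plus quencher for 45-90 min at room temperature. Compounds were pinned during FDSS kinetic reading; agonist 54-4 at EC80 (4 uM final) then added.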
Menin-MLL FL inh – inhibitors of human menin-MLL interaction, wild-type MLL peptide; FP activity change, % at 61.4 µM; AID 1766; 290,000 tested, under 10 active; Fluorescence polarization, fluorescein-MLL peptide displacement from menin; inconclusive = falling polarisation curve, or a change in total fluorescence; inactive = total fluorescence flat and polarisation flat or rising; no compound was filed as active; the % refers to the polarisation; negative = inhibition;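 also: % of control where 0% means no effect; inhibitors lower the polarisation; unlabelled MLL peptide was the positive control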
An asterisk follows results filed as active; & = joins results of further samples; [ ] = remark or other dose.

O=C(Cn1cc(C(F)(F)F)ccc1=O)Nc1ccccc1 was read as TRPV1 potentiator 3, Sfp PPTase inh 14%, gsp antagonist 0%, gsp agonist 3%[15.4 µM], TRPML1 inh inconclusive and Menin-MLL FL inh -7.1.
For COc1cc(NC(=O)CCS(=O)(=O)c2ccc3nc(C)sc3c2)cc(OC)c1OC the results were TRPV1 potentiator -8, ClpP mod -2.5%, Sfp PPTase inh 11%, gsp antagonist -6%, gsp agonist 15%, TRPML1 inh -29 and Menin-MLL FL inh 0.1.
COc1ccc(N2CCN(C3CCCN(C(=O)CCN4CCCCO4)C3)CC2)cc1 (stereo not drawn) was read as TRPV1 potentiator -6, ClpP mod -8.4%, Sfp PPTase inh 13%, gsp antagonist -13%, gsp agonist 19%, TRPML1 inh -11 and Menin-MLL FL inh -1.9.
CCCCn1nnc(NC(=S)NC(=O)c2ccc(OCC)c([N+](=O)[O-])c2)n1 was read as TRPV1 potentiator 5, ClpP mod -1.1%, Sfp PPTase inh 7%, gsp antagonist -6%, gsp agonist -40%[inhibitor] and TRPML1 inh 5.
For CCN(CC(=O)NC(=O)NCc1ccccc1)Cc1ccccc1 the results were TRPV1 potentiator -22, ClpP mod 0.5%, Sfp PPTase inh 4%, gsp antagonist 7%, gsp agonist 16% and TRPML1 inh 17.
`CCN(CC(=O)Nc1ccc(C(C)=O)cc1)CC(=O)Nc1ccccc1C(F)(F)F` gave TRPV1 potentiator -11, Sfp PPTase inh 2%, gsp antagonist 0%, gsp agonist -6%[15.4 µM], TRPML1 inh -4 and Menin-MLL FL inh 1.1.
COc1ccc(C(=O)NCc2ccccc2OC)cc1 was read as TRPV1 potentiator 12, ClpP mod 0.4%, Sfp PPTase inh 9%, gsp antagonist -6%, gsp agonist 8%, TRPML1 inh 11 and Menin-MLL FL inh -0.2.
For O=C(NCc1cccc(C(F)(F)F)c1)c1cc(Cl)cc(Cl)c1 the results were TRPV1 potentiator -9, ClpP mod -0.4%, Sfp PPTase inh -27%, gsp antagonist inconclusive, gsp agonist 26%, TRPML1 inh -2 and Menin-MLL FL inh 3.0.
N#CCCN(Cc1cccnc1)C(=S)NC(=O)c1ccc(S(=O)(=O)N2CCCC2)cc1 was read as TRPV1 potentiator 12, ClpP mod -0.5%, Sfp PPTase inh 2%, gsp antagonist 3%, gsp agonist 0%[15.4 µM], TRPML1 inh -3 and Menin-MLL FL inh 2.9.
Screening COc1ccc(C2=CSC3=NCCN23)cc1Cl returned TRPV1 potentiator inconclusive, Sfp PPTase inh 20%, gsp antagonist 3%, gsp agonist -18%, TRPML1 inh 14 and Menin-MLL FL inh 2.4.
CC(C)(C)C(=O)Nc1ccc2c(c1)OCCOCCOc1cc(NC(=O)C(C)(C)C)ccc1OCCOCCO2 was read as TRPV1 potentiator -2, Sfp PPTase inh 30%[activator], gsp antagonist 9%, gsp agonist -38%[inhibitor], TRPML1 inh -10 and Menin-MLL FL inh 0.6.
For COc1ccc(-n2nnnc2CNC(=O)c2ccc(S(=O)(=O)N3CCOCC3)cc2)cc1 the results were TRPV1 potentiator -5, gsp antagonist 5%, gsp agonist 1%[15.4 µM] and TRPML1 inh 2.
For COC(=O)CN1C(=S)N(c2ccc(Cl)cc2)C(=O)C1CC(=O)Nc1ccc(Cl)cc1 (stereo not drawn) the results were TRPV1 potentiator -11, ClpP mod 0.3%, Sfp PPTase inh 79µM*, gsp antagonist -15%, gsp agonist 7%, TRPML1 inh 3 and Menin-MLL FL inh 2.8.
Screening NS(=O)(=O)c1ccc(N2CCN(CCOc3ccc(Cl)cc3)CC2)nc1 returned TRPV1 potentiator -1, Sfp PPTase inh 4%, gsp antagonist -6%, gsp agonist 29%[15.4 µM], TRPML1 inh -4 and Menin-MLL FL inh 0.8.
`Cc1ccccc1S(=O)(=O)NCC1CCCO1` (stereo not drawn) gave TRPV1 potentiator -8, ClpP mod -0.5%, Sfp PPTase inh 17%, gsp antagonist 6%, gsp agonist -18%[15.4 µM], TRPML1 inh -21 and Menin-MLL FL inh -4.3.
Screening Cc1cc(Cl)ccc1Oc1cccc(C(=O)/C(C#N)=C/N(C)C)c1 returned TRPV1 potentiator 0, ClpP mod -0.4%, Sfp PPTase inh 9%, gsp antagonist inconclusive, gsp agonist -23%, TRPML1 inh 14 and Menin-MLL FL inh 2.5.
COc1ccc(-n2nnc3c(=O)n(CC(=O)OCc4ccccc4)cnc32)cc1 was read as TRPV1 potentiator -7, ClpP mod -6.1%, Sfp PPTase inh 16%, gsp antagonist -19%, gsp agonist -54%[inhibitor], TRPML1 inh 10 and Menin-MLL FL inh 0.2.
Cc1ccc(-c2cc(C(=O)NC3=NCCS3)c3cc(Br)ccc3n2)o1 was read as TRPV1 potentiator 30, Sfp PPTase inh -92% and Menin-MLL FL inh 18.
For COCCCN1C(=O)c2ccc(C(=O)N3CCN(c4ccccc4OC)CC3)cc2C1=O the results were TRPV1 potentiator -11, ClpP mod 1.3%, Sfp PPTase inh 8%, gsp antagonist 17%, gsp agonist inconclusive, TRPML1 inh 10 and Menin-MLL FL inh 0.2.
c1ccc(Oc2ccc3ccccc3n2)cc1 was read as TRPV1 potentiator -1, Sfp PPTase inh 14%, gsp antagonist 17%, gsp agonist 20%[15.4 µM], TRPML1 inh -5 and Menin-MLL FL inh -0.3.
For COC(=O)COc1ccc(S(=O)(=O)NC2CCCCCC2)cc1 the results were TRPV1 potentiator -10, ClpP mod 1.3%, Sfp PPTase inh 3%, gsp antagonist -8%, gsp agonist 4%, TRPML1 inh 9 and Menin-MLL FL inh 3.0.
Screening CCCCN(C)CCC(=O)Nc1ccc(Cl)cc1 returned TRPV1 potentiator 21, ClpP mod -1.1%, Sfp PPTase inh 3%, gsp antagonist 7%, gsp agonist 4%, TRPML1 inh 18 and Menin-MLL FL inh 4.0.
For COCC(C)N=C1NN=C(c2cc(C)n(Cc3ccccc3Cl)c2C)CS1 (stereo not drawn) the results were TRPV1 potentiator 2, ClpP mod -0.9%, Sfp PPTase inh -20%, gsp antagonist -6%, gsp agonist inconclusive, TRPML1 inh 9 and Menin-MLL FL inh -1.2.
For CCOCCOC(=O)CCSc1n[nH]c(=O)[nH]c1=O the results were TRPV1 potentiator -2, ClpP mod 0.6%, Sfp PPTase inh -21%, gsp antagonist 5%, gsp agonist -21%, TRPML1 inh -2 and Menin-MLL FL inh 0.1.
For COC(=O)Nc1ccc(S(=O)(=O)Nc2ccc(O)cc2)cc1 the results were TRPV1 potentiator 12, ClpP mod 0.6%, Sfp PPTase inh 17%, gsp antagonist -7%, gsp agonist -38%[inhibitor], TRPML1 inh -10 and Menin-MLL FL inh 3.9.
Screening COC(=O)NCc1ccc(S(=O)(=O)N2CCOCC2)cc1 returned TRPV1 potentiator 3, ClpP mod 1.1%, Sfp PPTase inh -1%, gsp antagonist 6%, gsp agonist 10%, TRPML1 inh -14 and Menin-MLL FL inh 1.2.
`O=[N+]([O-])c1cc(S(=O)(=O)Nc2cccc(C(F)(F)F)c2)ccc1-n1nnc2ccccc21` gave TRPV1 potentiator -5, ClpP mod -0.5%, Sfp PPTase inh 21%, gsp antagonist inconclusive, gsp agonist -48%[inhibitor], TRPML1 inh -7 and Menin-MLL FL inh 5.0.
Screening Cc1cccc2cc(C#N)c(NCCNS(=O)(=O)c3ccccc3)nc12 returned TRPV1 potentiator 3, Sfp PPTase inh -4%, gsp antagonist -3%, gsp agonist 24%[15.4 µM], TRPML1 inh 13 and Menin-MLL FL inh 1.8.
Screening CN(Cc1cn(C)nc1-c1cccc(Cl)c1)CC1CCCCO1 (stereo not drawn) returned TRPV1 potentiator -5, Sfp PPTase inh 10%, gsp antagonist 11%, gsp agonist -2%, TRPML1 inh -11 and Menin-MLL FL inh -1.0.
`CNC(=S)Nc1ccc2nc(C)oc2c1` gave TRPV1 potentiator -12, Sfp PPTase inh 12%, gsp antagonist 4%, gsp agonist -20%, TRPML1 inh -3 and Menin-MLL FL inh 0.1.
`CC(=O)c1ccc(NC(=O)C2=CC(c3cccs3)=NS(=O)(=O)N2C)cc1` gave TRPV1 potentiator 8, ClpP mod -0.9%, Sfp PPTase inh 9%, gsp antagonist -18%, gsp agonist -16% and TRPML1 inh -8&-3.
For COc1cc(/C=N/Nc2ccc(C(F)(F)F)cn2)cc(OC)c1O the results were TRPV1 potentiator 2, Sfp PPTase inh inconclusive, gsp antagonist 5%, gsp agonist 27%, TRPML1 inh -3 and Menin-MLL FL inh -3.8.
CCOP(=O)(c1ccccc1)C1(C#N)CCCC1 (stereo not drawn) was read as TRPV1 potentiator 3, ClpP mod 1.4%, Sfp PPTase inh 1%, gsp antagonist inconclusive, gsp agonist inconclusive, TRPML1 inh -14 and Menin-MLL FL inh 1.1.
`CNC(=O)CN1C(=O)C2C3C=CC(C3)C2C1=O` (stereo not drawn) gave TRPV1 potentiator 5, ClpP mod 0.4%, Sfp PPTase inh 2%, gsp antagonist 10%, gsp agonist inconclusive, TRPML1 inh 18 and Menin-MLL FL inh 3.6.
`COc1ccc(CCNC(=O)C2CC3Cn4c(nc5ccccc54)C3N2c2ccccc2)cc1` (stereo not drawn) gave ClpP mod 0.0%, gsp antagonist -5% and TRPML1 inh -2.
`Cc1nccn1CCCNC(=O)CC1C(=O)NCCN1Cc1ccccc1C(F)(F)F` (stereo not drawn) gave TRPV1 potentiator -6, ClpP mod -11%, Sfp PPTase inh 22%, gsp antagonist 9%, gsp agonist 6%, TRPML1 inh 9 and Menin-MLL FL inh -2.3.
Screening COc1ccccc1NC(=S)N(CCN1CCCCCC1)Cc1cccs1 returned TRPV1 potentiator 4, Sfp PPTase inh -1%, gsp antagonist -14%, gsp agonist 3%[15.4 µM], TRPML1 inh -4 and Menin-MLL FL inh -1.1.
